# GALR2 agonist: GALR2 receptor agonists, primary screen, cell-based; Galanin receptor type 2 (Homo sapiens), O43603; GALR2-expressing cells, agonist activation read-out; activation, %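 (tested at 5 µM)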; 140,000 compounds, 0.48% hits;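 active = above mean plus 3 SD of all compounds, about 5% in these data, not always enough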;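 note: 0% = vehicle buffer wells and 100% = reference agonist at full effect; tested in CHO reporter cells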
# RGS16-Gao: modulators of RGS16 binding to Galphao, primary screen, biochemical, human proteins, multiplexed bead flow cytometry; Regulator of G-protein signaling 16 (Homo sapiens) + Guanine nucleotide-binding protein …; bead-based flow cytometry RGS16-Galphao binding, fluorescence; actives lie on both sides; binding response (% of control), % at 10 µM; 220,000 compounds, 0.38% hits; AID 1441, 2008;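 active = below 25% or above 175%, edge rows of some plates excepted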;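 note: Galphao activated by GDP with aluminum fluoride before binding; 100% = wells without compound and 0% = beads without RGS; some results beyond the cut were filed as inactive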
# HSV augment: enhancers of HSV replication in host cells, fold increase, host cell viability; HSV replication augmentation in cells; maximum fold increase; 220,000 compounds, 0.005% hits; AID 1956, 2009;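 active = peak rise of 1.5-fold or more in the series; inconclusive = self-fluorescent or not available for retest; tested in PC3 cells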;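 note: first round at 10 µM; read as green reporter fluorescence; hits show the peak of a series up to 25 µM; 1 = signal of infected wells without compound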
# INS promoter inh: inhibitors of insulin promoter-driven GFP, primary screen, imaging, TRM-6 cells (human fetal islet line), eGFP reporter, cell count; reporter expression induced with tamoxifen; inhibition, % at 2 µM; 130,000 compounds, 0.9% hits; AID 1273, 2008;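 active = inhibition above the mean plus 3 SD, with well images judged a real hit on visual review, cut at about 60% in these data, passing the limit was not always enough; inconclusive = inhibition over the cutoff but images rejected on review; inactive = inhibition not above the cutoff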
# PKD1 inh: inhibitors of human PKD1 kinase, biochemical, fluorescence polarization | inhibition, %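 (about 10 µM by stock and volumes)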 | 200,000 compounds, 0.056% hits | Serine/threonine-protein kinase D1 (Homo sapiens), Q15139 | PKD1 kinase fluorescence polarization assay;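 active = inhibition of 50% or more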;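 note: controls were vehicle for no effect and a reference inhibitor for full effect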
# Target sequence (Q15139 whole entry, looked up): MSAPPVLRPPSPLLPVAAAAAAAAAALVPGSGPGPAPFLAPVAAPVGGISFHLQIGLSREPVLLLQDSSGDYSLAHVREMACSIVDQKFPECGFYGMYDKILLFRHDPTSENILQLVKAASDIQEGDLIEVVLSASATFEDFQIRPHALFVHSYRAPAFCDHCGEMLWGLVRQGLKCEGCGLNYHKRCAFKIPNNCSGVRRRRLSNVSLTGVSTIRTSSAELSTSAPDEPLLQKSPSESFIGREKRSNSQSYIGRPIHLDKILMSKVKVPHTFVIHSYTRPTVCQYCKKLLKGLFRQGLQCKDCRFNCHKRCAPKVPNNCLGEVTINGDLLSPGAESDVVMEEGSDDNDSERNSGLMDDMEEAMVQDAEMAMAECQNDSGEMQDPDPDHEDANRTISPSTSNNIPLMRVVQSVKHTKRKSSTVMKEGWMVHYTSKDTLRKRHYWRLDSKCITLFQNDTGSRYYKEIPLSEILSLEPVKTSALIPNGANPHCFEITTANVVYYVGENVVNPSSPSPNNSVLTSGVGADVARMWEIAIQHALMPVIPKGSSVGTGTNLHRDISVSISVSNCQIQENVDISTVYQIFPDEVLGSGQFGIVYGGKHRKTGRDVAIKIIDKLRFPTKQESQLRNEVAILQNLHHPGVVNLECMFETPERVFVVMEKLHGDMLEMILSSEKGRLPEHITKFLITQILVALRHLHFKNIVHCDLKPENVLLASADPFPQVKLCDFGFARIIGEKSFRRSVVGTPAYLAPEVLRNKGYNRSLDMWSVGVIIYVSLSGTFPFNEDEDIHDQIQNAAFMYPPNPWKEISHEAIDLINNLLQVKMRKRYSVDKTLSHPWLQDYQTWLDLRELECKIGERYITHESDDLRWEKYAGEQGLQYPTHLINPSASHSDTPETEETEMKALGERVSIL
# INS promoter inh cell count: also measured in INS promoter inh; calls as there; normalized cell count, %; measured here: cell count, toxicity; reference of the scale not given here;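 cells exposed to compound for 48 h; stained nuclei by imaging scaled within each plate; lower means fewer cells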
# HSV augment primary fold: also measured in HSV augment; calls as there; fold increase; compound at 10 µM; measured here: primary screen fold increase 10 uM; tested in PC3 cells;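 GFP signal in the first replicate; 1 = infected wells without compound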
# * marks the source's active call; other numbers are inactive results; i = inactive; ? = inconclusive; nt = not tested or not shown.
SMILES,GALR2 agonist,RGS16-Gao,HSV augment,HSV augment primary fold,INS promoter inh,INS promoter inh cell count,PKD1 inh
CCCCCCN1C(=O)C(O)=C(C(C)=O)C1c1ccc(Cl)cc1 (stereo unspecified),-2.7,94,i,0.92,-4,90,0
Cc1cc(C)c2ccc(C)[n+]([O-])c2c1O,-1.6,88,i,0.95,-50,108,-13
CCCn1c(NCc2ccc(C)o2)nc2ccccc21,-1.0,104,i,1,40,75,4
O=C(c1ccccc1)c1ccc(CN2C(=O)c3ccccc3C2=O)o1,-1.9,99,i,0.66,-394,59,-6
CCCn1cc(S(=O)(=O)CC(=O)N2CCc3ccccc32)c2ccccc21,0.0,102,i,0.87,nt,nt,-13
Nc1nc(SCc2ccc(F)cc2)ns1,nt,103,i,0.99,nt,nt,4
Cc1ccc(-c2nnn(CC(=O)NCC3COCCO3)n2)o1 (stereo unspecified),-0.8,101,i,0.96,28,120,0
Cc1cccc(C(=O)NC(=S)N2CCN(c3ccc([N+](=O)[O-])cc3)CC2)c1,0.1,102,i,1,33,164,-7
CCc1nnc(NC(=O)CSc2nnc(CSc3nc(C)cc(C)n3)n2CC)s1,-0.6,nt,nt,nt,-7,118,-2
COC(=O)CCCC[C@H]1SC[C@H]2NC(=O)N[C@]21O,-3.8,110,i,1.1,-79,38,-2
Cc1ccc(C(=O)Nc2cccnc2)cc1[N+](=O)[O-],nt,106,i,0.92,-36,89,-6
COc1ccccc1N1CCN(C2CCN(C(=O)c3cccc(F)c3)CC2)CC1,0.3,100,i,0.98,-21,90,-1
CCSc1nnc(NC(=O)NCC(F)(F)F)s1,-1.0,97,i,1,nt,nt,-4
CCOc1ccc(CCNC(=O)c2cccc(C#N)c2)cc1OCC,nt,111,i,1.1,27,82,-5
CCN(Cc1cc(=O)[nH]c2ccccc12)C(=O)C(C)C,nt,104,i,0.94,nt,nt,nt
Cc1sc2nc(SCC(=O)NCCOCCO)n(C)c(=O)c2c1C,-1.8,99,i,1.1,23,121,-8
CC1=C(C(=O)OC2CCCCC2)C(c2cccnc2)n2ncnc2N1 (stereo unspecified),-1.0,103,i,1.1,12,98,1
CCC(C(=O)O)P(=O)(c1ccc(Cl)cc1)c1ccc(Cl)cc1 (stereo unspecified),nt,96,i,0.98,5,67,3
Cc1ncc(CO)c(/C=N/NC(=O)c2ccc(O)cc2)c1O,-0.6,103,i,1.1,11,112,-8
CC12COC3(C(=O)N4CCN(c5ccccn5)CC4)CC1CCC32C (stereo unspecified),nt,103,i,1,nt,nt,nt
COc1ccc(C)cc1NC(=O)CN(c1ccc(C)cc1)S(C)(=O)=O,nt,102,i,1,-10,170,1
OC(CNCCNc1ncccc1C(F)(F)F)COc1ccc(F)cc1 (stereo unspecified),nt,101,i,0.94,nt,nt,nt
O=C1NCCN(Cc2c(F)cccc2Cl)C1CC(=O)N1CCCO1 (stereo unspecified),nt,98,i,0.91,nt,nt,-6
O=C(CP(=O)(CO)CO)c1ccc(Cl)cc1,-1.2,101,i,0.98,nt,nt,-6
Cc1cc2cc(C(c3nnnn3C3CCCC3)N(Cc3cccnc3)Cc3ccco3)c(=O)[nH]c2cc1C (stereo unspecified),0.3,100,i,0.97,13,91,-1
COC(=O)[C@H]1C[C@@H]1[C@H](NS(=O)(=O)c1ccccc1)c1ccccc1,-1.8,106,i,0.75,18,63,-16
Cc1cc(SCC(=O)Nc2c(C)n(C)n(-c3ccccc3)c2=O)n2c(nc3ccccc32)c1C#N,1.9,nt,nt,nt,13,55,-10
COCCn1c(=O)[nH]c2cc(C(=O)NCCCN3CCN(c4ccc(F)cc4)CC3)ccc2c1=O,-1.5,120,i,0.84,18,179,1
O=S(=O)(Nc1nc2ccccc2nc1OCC(F)(F)F)c1cccs1,nt,96,i,1.1,nt,nt,nt
Cc1ccnc(NC(=S)NC(=O)/C=C/c2ccc(Cl)cc2)c1,-1.8,96,i,0.95,-24,155,5
O=C1NC(=O)/C(=C\c2ccccc2Oc2ccc(F)c(F)c2)S1,-3.5,99,i,0.99,32,76,2
Cc1ccc(S(=O)(=O)N(C)C)cc1NC(=S)NC(C)CCCC(C)C (stereo unspecified),-1.2,103,i,0.98,-21,99,-4
Cc1cc(Cl)ccc1OCC(=O)OC(C)C(=O)NC(N)=O (stereo unspecified),-2.1,104,i,1.1,-9,120,1
CCN(CC)S(=O)(=O)c1cccc(NC(=O)C2SC(=Nc3ccc(C)cc3C)C(C(=O)NC(C)COC)=C2N)c1 (stereo unspecified),-1.0,101,i,0.88,13,60,-4
CC1CCN(CCCNC(=O)CCCNC(=O)Cn2cnc3sc4c(c3c2=O)CCCC4)CC1,-1.3,99,i,0.97,-38,78,-2
CCC(=O)N1CCc2cc(S(=O)(=O)CCC(=O)Nc3ccc(C)cn3)ccc21,nt,22,i,1,nt,nt,-2
CCOC(=O)NC1(Nc2ccc(C)cc2)Oc2ccccc2O1,-0.7,104,i,0.85,nt,nt,-8
Cc1cccc(OCC2=N/C(=C\N(C)C)C(=O)O2)c1,-2.0,103,i,0.97,-58,104,-8
CCOC(=O)CSc1nsc(SCC(=O)OCC)c1C#N,-1.3,87,i,0.95,-12,132,0
COc1ccc(-n2c(C)cc(C(=O)Cn3c(NCCO)nc4ccccc43)c2C)cc1,-0.7,100,i,0.93,nt,nt,1
CC(=O)c1c(COC(=O)c2cccnc2)nc2ccccc2[n+]1[O-],-0.7,104,i,1.1,nt,nt,0
CC1Cc2ccccc2N1C(=O)c1ccc(N2CCCCC2)c([N+](=O)[O-])c1 (stereo unspecified),-1.6,103,i,0.88,nt,nt,2
CC(=O)c1cc(F)c(N2CCCC2)cc1C,-0.2,100,i,0.98,-14,64,1
C=CCSC1=C(C#N)C2(CCCCC2)C(C#N)C(=O)N1 (stereo unspecified),0.0,97,i,0.86,nt,nt,-6
COc1ccc(C(=O)N/N=C2\CCc3ccccc32)cc1OC,nt,98,i,0.89,33,168,-8
COc1ccc(-c2cn3ccsc3n2)cc1,-3.0,102,i,0.95,nt,nt,5
CSc1ccc(-c2cc(=O)c3ccccc3o2)cc1,-0.9,30,i,0.81,38,73,3
CCOc1ccc(-n2c(SCC(=O)Nc3nccs3)nc3c(c2=O)SCC3)cc1,-0.5,92,i,0.52,nt,nt,-5
CCOCCCNC(=O)C(C)NS(=O)(=O)c1ccc(C)cc1 (stereo unspecified),-1.2,104,i,1,-47,240,-9
CS(=O)(=O)N(CC(=O)N1CCCCCC1)c1cccc(Br)c1,-3.5,103,i,1.1,nt,nt,-19
Cc1cccn2c(=O)c(/C=C(\C#N)C(=O)NC3CCS(=O)(=O)C3)c(N3CCC(C)CC3)nc12 (stereo unspecified),4.5,124,i,1,23,131,9
O=C(Cn1cnc2c(nnn2Cc2ccccc2)c1=O)NCc1ccco1,-1.3,101,i,0.76,nt,nt,-10
O=C1OCC(CO)(CO)N=C1NNc1cc(Cl)ccc1Cl,-3.3,101,i,1.1,-32,105,-1
COc1cc(/C=C2\SC(=S)N(NS(=O)(=O)c3ccc(C)cc3)C2=O)ccc1O,nt,102,?,nt,nt,nt,nt
CCn1c(SCC(=O)Nc2ccc(OC)c(OC)c2)nnc1-c1ccco1,nt,113,i,1,nt,nt,nt
Cc1cccc(Nc2nc(NC(C)C)nc(Oc3ccc(=O)n(C)n3)n2)c1,-2.0,94,i,0.76,-12,102,3
S=C(Nc1ccccc1)Nc1nccs1,nt,102,i,0.88,nt,nt,nt
COc1ccc(NC(=O)CN2CCC(C(N)=O)(N3CCCCC3)CC2)cc1,-0.6,105,i,1.1,nt,nt,-3
CC(=O)c1cc(-c2ccc(F)cc2)n(CCC(=O)Nc2cccnc2)c1C,nt,99,nt,nt,21,92,8
O=C(CCC(=O)N(Cc1ccco1)C(C(=O)NC1CCCC1)c1ccncc1)Nc1cccnc1 (stereo unspecified),-1.2,99,i,0.86,nt,nt,-4
# Next structures.
SMILES,GALR2 agonist,RGS16-Gao,HSV augment,HSV augment primary fold,INS promoter inh,INS promoter inh cell count,PKD1 inh
O=C(O)C1C2CCC(C2)C1C(=O)NCc1ccco1 (stereo unspecified),-0.8,97,i,0.96,9,106,-6
CCc1nnc(NC(=O)CSc2nnc(Cc3ccccc3)o2)s1,1.1,123,i,0.97,7,76,8
CCc1nnc(NC(=O)CCC(=O)O)s1,-2.0,105,i,0.84,nt,nt,4
CCn1nccc1C(=O)Nc1ccc(Cl)cn1,-1.2,101,i,0.83,i,57,-11
CNc1c([N+](=O)[O-])cnn1-c1ccccn1,nt,98,i,0.87,9,98,-8
CC(=O)Nc1nc(=S)n(-c2ccccc2)[nH]1,-0.1,103,i,0.99,nt,nt,8
CN1CCc2c(sc(/N=C/c3c[nH]c4ccccc34)c2C(N)=O)C1,nt,103,i,1,nt,nt,nt
CC(=O)Nc1c(C)ccc(S(N)(=O)=O)c1C,nt,101,i,1,nt,nt,-7
OCCC1CN(Cc2nc3ccccc3s2)CCN1C1CCCCC1 (stereo unspecified),nt,98,i,0.94,nt,nt,-6
COc1ncnc2c1oc1nc(C(C)C)c3c(c12)CC(C)(C)OC3,-1.1,94,i,0.96,nt,nt,-5
CC1CC(C)CN(C(=O)c2ccc(CNc3c(N4CCCC4)c(=O)c3=O)cc2)C1 (stereo unspecified),nt,99,i,1,nt,nt,nt
CS(=O)(=O)Nc1nnc(Cc2ccccc2)s1,-0.1,104,i,0.92,-17,98,-5
O=C(N/C(C(=O)N1CCOCC1)=C(\Sc1ncccn1)c1ccccc1)c1ccccc1,0.0,100,i,0.98,-13,131,-4
CN(Cc1ccccc1)S(=O)(=O)c1ccccc1[N+](=O)[O-],nt,109,i,1,nt,nt,-3
COc1ccc(/C(C)=C(\C#N)C(=O)OC(C)C)cc1OC,-1.9,nt,i,1.1,44,143,1
Cc1c(O)nc(SCC(=O)Nc2ccc3c4c(cccc24)CC3)n(-c2ccc(F)cc2)c1=O,-0.2,107,i,0.93,-25,82,-10
O=C1N/C(=N\N=C\c2ccc3ncccc3c2)SC1Cc1ccc(SC(F)F)cc1 (stereo unspecified),-2.2,102,i,1,-5,94,-2
COc1cc(/C=C/C2=CC(C)(C)NC(=S)N2)cc(OC)c1OC,nt,100,i,0.8,nt,nt,-2
CCOC(=O)CC(=O)c1[nH]c(C)c(C(=O)OCC)c1C,nt,99,i,1,nt,nt,-4
CCOc1ccc(NC(=O)C(Cc2ccccc2)N2C(=O)c3cccc4cccc(c34)C2=O)cc1 (stereo unspecified),nt,100,i,0.76,nt,nt,0

# As entered above:
# Under RGS16-Gao, CC(=O)Nc1c(C)ccc(S(N)(=O)=O)c1C has the entry 101
# Under RGS16-Gao, CN(Cc1ccccc1)S(=O)(=O)c1ccccc1[N+](=O)[O-] has the entry 109

# Profiles as entered above. Screens in order: GALR2 agonist	RGS16-Gao	HSV augment	HSV augment primary fold	INS promoter inh	INS promoter inh cell count	PKD1 inh
# Cc1cccc(OCC2=N/C(=C\N(C)C)C(=O)O2)c1 in the list: -2.0	103	i	0.97	-58	104	-8
# CC12COC3(C(=O)N4CCN(c5ccccn5)CC4)CC1CCC32C (stereo unspecified) in the list: nt	103	i	1	nt	nt	nt
# CCOc1ccc(-n2c(SCC(=O)Nc3nccs3)nc3c(c2=O)SCC3)cc1 in the list: -0.5	92	i	0.52	nt	nt	-5

# Later entries:
SMILES,GALR2 agonist,RGS16-Gao,HSV augment,HSV augment primary fold,INS promoter inh,INS promoter inh cell count,PKD1 inh
CCC(=O)N1CCc2cc(S(=O)(=O)Nc3ccc4c(c3)OCCO4)ccc21,-1.6,100,i,0.91,-11,129,-8
Cn1cc(C(=O)Nc2ccc3c(c2)CCC3)cn1,-2.1,62,i,0.84,-7,82,10
c1ccc2cc3[nH]c(CN4CCOCC4)nc3cc2c1,-1.4,98,i,0.9,-60,118,17
C=CCOc1ccccc1CN1CCCC(CCC(=O)N(C)CCc2ccccn2)C1 (stereo unspecified),nt,100,i,1.2,nt,nt,-2
COc1ccc(C(C)=O)cc1COC(=O)CCCN1C(=O)c2ccccc2C1=O,nt,96,i,0.98,nt,nt,-5
COC(=O)c1ccc(C2Nc3ccc(/C(C)=N/NC(=O)C(OC)c4ccccc4)cc3C3C=CCC32)cc1 (stereo unspecified),-2.7,77,i,0.9,nt,nt,-1
COc1ccc([N+](=O)[O-])cc1NC(=O)C(C)Sc1nc(-c2ccccc2)cs1 (stereo unspecified),-0.9,98,i,0.99,nt,nt,-14
